Screens (PubChem BioAssay)
Tau fil binding: binders of human tau filaments | recombinant tau filaments, thioflavin S fluorescence, 15 h; filaments grown with octadecylsulfate alongside compound | Potency, µM (doses to about 57.1 µM), inactives show top-dose activity change, negative = inhibition | P10636 | hit rate 2% among 71,000;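 further: potency means the concentration at half of the fitted maximal effect; on the % scale 0 is the no-effect control and ±100 the full control effect; actives lower thioflavin S fluorescence by blocking filaments or displacing dye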
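Read-out: ThS fluorescence, 450 nm excitation/510 nm emission; lower signal marks blocked filament formation or displaced dye. Tau at 1 uM with 30 uM ODS, 10 uM ThS, 5 mM DTT, 100 mM NaCl, 10 mM HEPES pH 7.4; 15 h, 37 C.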
Fluorescein fluor: fluorescein region autofluorescence; Compound autofluorescence, 480/540 nm, fluorescein-equivalent; stronger effect = higher value; max fluorescein-equivalent concentration, M; hit rate 0.91% among 59,000; AID 593; in the data active means max fluorescein-equivalent concentration above about 10 nM; inconclusive means between about 1.1 nM and that limit
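Spectral profiling of library compounds in the fluorescein window (480 nm excitation, 540 nm emission) after 15 min at room temperature in pH 8.0 Tris (100 mM). Values are dye-equivalent concentrations.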
FLuc inh: blocks Photinus pyralis firefly luciferase activity; P08659; purified firefly luciferase, luminescence, 8 min; Potency, µM (doses to about 57.1 µM), for the others: top-dose activity change, negative = inhibition, usual class: inhibitors; hit rate 2.2% among 72,000; AID 411; further: potency means the concentration at half of the fitted maximal effect; on the % scale 0 is the no-effect control and ±100 the full control effect; nearly all actives have a fitted effect of over 40% in size
Target sequence (P08659 whole entry, looked up): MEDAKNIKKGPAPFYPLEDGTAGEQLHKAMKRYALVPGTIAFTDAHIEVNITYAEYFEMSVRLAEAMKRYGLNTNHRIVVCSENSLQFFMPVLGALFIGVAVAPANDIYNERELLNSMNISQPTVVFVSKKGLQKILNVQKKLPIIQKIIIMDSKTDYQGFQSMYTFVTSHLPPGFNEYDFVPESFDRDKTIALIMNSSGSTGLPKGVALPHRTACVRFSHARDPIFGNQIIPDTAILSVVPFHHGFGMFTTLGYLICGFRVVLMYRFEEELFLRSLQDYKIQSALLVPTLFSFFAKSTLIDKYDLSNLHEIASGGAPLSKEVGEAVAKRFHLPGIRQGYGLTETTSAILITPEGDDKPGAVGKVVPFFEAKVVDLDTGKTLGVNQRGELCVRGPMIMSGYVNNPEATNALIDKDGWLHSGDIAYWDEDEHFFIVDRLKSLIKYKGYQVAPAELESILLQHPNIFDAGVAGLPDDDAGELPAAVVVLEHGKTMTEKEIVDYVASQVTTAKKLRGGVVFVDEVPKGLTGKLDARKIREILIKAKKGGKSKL
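Here, luciferase activity is measured as luminescence following an 8 min room-temperature reaction at 10 uM ATP, pH 7.2. Every library sample is titrated.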
ERK AVP inh: vasopressin-driven ERK pathway inhibition. HEK293-V1b, vasopressin-stimulated pERK AlphaScreen. Potency, µM (series often up to 57.5 µM), for inactives: top-dose activity, negative = inhibition, most hits filed as inhibitors. hit rate 0.99% among 72,000; further: potency means the concentration at half of the fitted maximal effect; on the % scale 0 is the no-effect control and ±100 the full control effect; nearly all actives have a fitted effect of over 55% in size
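Overnight-seeded V1b-HEK293 cells in 1% FBS got compound, then vasopressin (25 nM final, 5 min, 37C), then lysis buffer. AlphaScreen detection of phospho-ERK; activity normalized to basal and full-stimulation controls.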
TexasRed autofl: compound fluoresces in the Texas Red spectral region. Compound fluorescence, Texas Red channel, 547/618 nm; stronger effect = higher value. max dye-equivalent concentration, M. hit rate 0.06% among 59,000; in the data active means max dye-equivalent concentration above about 10 nM; inconclusive means between about 1.1 nM and that limit
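Texas Red-region profiling: compounds in 100 mM Tris pH 8.0 were read at 547/618 nm after 15 min at room temperature. Intensities were normalized against a six-point Texas Red standard series to give dye-equivalent concentration.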
Rhodamine fluor: compound autofluorescence in rhodamine spectral region; Rhodamine-region fluorescence, 547/598 nm, Tris buffer; stronger effect = higher value; AID 594; hit rate 0.05% among 59,000; max dye-equivalent concentration, M; in the data active means max dye-equivalent concentration above about 11 nM; inconclusive means between about 1.1 nM and that limit
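Steps: pin-transfer compounds into pH 8.0 Tris (100 mM), hold 15 min at room temperature, image with a 547/598 nm filter pair, and convert intensities to rhodamine-equivalent concentration using a six-point on-plate rhodamine series.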
* marks the source's active call; other numbers are inactive results; i = inactive; ? = inconclusive; · = no result given; & = joins results of further samples; ! = not active in a repeat; [ ] = another dose, or the depositor's remark. Unless noted, the call rests on the fitted dose curve; in most records, active means well fitted curve in the direction sought with a large enough effect; inconclusive means small, poorly fitted or top-dose-only effect, or another doubt; inactive means no such curve, though single readings can be large; an effect the other way counts as inactive or inconclusive.

SMILES | ERK AVP inh | Fluorescein fluor | Rhodamine fluor | TexasRed autofl | Tau fil binding | FLuc inh
Cc1cccn2c(NCC3CCCO3)c(C(C)C)nc12 (configuration not stated) | -11% | i | i | i | -7% | -1%
CCCCOC(=O)c1ccccc1N | 13% | · | · | · | 5% | ·
CC1CCCC(=O)CCC/C=C/c2cc(O)cc(O)c2C(=O)O1 (configuration not stated) | 30% | · | · | · | · | ·
CN(C)NC(=O)CCC(=O)O | 9% | · | · | · | 4% | ·
O=[N+]([O-])c1ccccc1Cl | 16% | · | · | · | -4% | ·
[O-][Cl+2]([O-])O | 2% | · | · | · | -5% | ·
Cc1o[nH]c(=O)c1C[C@H](N)C(=O)O | 23%&1%&1%&4% | i | i | ? | 32µM*! | -3%&-4%&0%&-1%
Cc1ccccc1 | 1%&-10% | · | · | · | -7%&6% | ·
Clc1ccc(C(Cl)(Cl)Cl)cc1Cl | -8% | · | · | · | 17% | ·
CCCN(CCC)CCc1ccc(O)c(O)c1 | -21% | ? | i | i | 0% | 2%
CCN(CC)c1ccccc1 | 5% | · | · | · | -7% | ·
CCOc1cc(-c2nc3c(C)cccn3c2NCC2CCCO2)ccc1O (configuration not stated) | -20% | ? | i | i | -6% | -3%
Nc1cc(Cl)cc(C(=O)O)c1Cl | 15% | · | · | · | -7% | ·
Oc1cc(Cl)cc(Cl)c1Cl | 4% | · | · | · | 8% | ·
CC(C)CCn1c(N)c(C(=O)OCC2CCCO2)c2nc3ccccc3nc21 (configuration not stated) | -29% | i | i | i | -10% | -3%

Single records, as listed above. Order of values: ERK AVP inh	Fluorescein fluor	Rhodamine fluor	TexasRed autofl	Tau fil binding	FLuc inh
Results for CC(C)CCn1c(N)c(C(=O)OCC2CCCO2)c2nc3ccccc3nc21 (configuration not stated) : -29%	i	i	i	-10%	-3%
Results for CCCCOC(=O)c1ccccc1N : 13%	·	·	·	5%	·
Results for Oc1cc(Cl)cc(Cl)c1Cl : 4%	·	·	·	8%	·
Results for CC1CCCC(=O)CCC/C=C/c2cc(O)cc(O)c2C(=O)O1 (configuration not stated) : 30%	·	·	·	·	·
Results for O=[N+]([O-])c1ccccc1Cl : 16%	·	·	·	-4%	·

(next part)
SMILES | ERK AVP inh | Fluorescein fluor | Rhodamine fluor | TexasRed autofl | Tau fil binding | FLuc inh
COc1c(C(C)(C)C)cc([N+](=O)[O-])c(C)c1[N+](=O)[O-] | -15% | · | · | · | 5% | ·
CC(C)OCCCNC(=O)c1c(N)n(Cc2cccs2)c2nc3ccccc3nc12 | -4% | ? | i | ? | 181% | 2%
CC(C)OC(=O)c1c(N)n(CC2CCCO2)c2nc3ccccc3nc12 (configuration not stated) | 5% | i | i | i | -10% | -1%
CCOc1ccc2[nH]c(=O)c(CN(CCO)C3(c4nnnn4C4CCCCC4)CCCCC3)cc2c1 | -17% | ? | i | i | 9% | -1%
CC[C@@H](CO)NC(=O)[C@H]1C=C2c3cccc4c3c(cn4C)C[C@H]2N(C)C1 | -10% | · | · | · | -24% | -1%
Nc1c(C(=O)OC2CCCCC2)c2nc3ccccc3nc2n1CC1CCCO1 (configuration not stated) | 23% | ? | i | i | -9% | -17%
C[C@H](CCC(=O)O)[C@H]1CC[C@@H]2[C@H]3CC[C@H]4C[C@@H](O)CC[C@@]4(C)[C@H]3CC[C@]21C | 9%[25.7 µM] | ? | i | i | -8%[25.6 µM] | 11%[25.5 µM]
CC[C@@H](CO)NC(=O)[C@@H]1C=C2c3cccc4c3c(cn4C)C[C@H]2N(C)C1 | · | 4.8e-08M* | i | i | · | -3%[25.5 µM]
O=[N+]([O-])c1cc(Cl)c(Cl)cc1Cl | 0% | · | · | · | 6% | ·
CCOP(=S)(OCC)Oc1ccc2c(C)c(Cl)c(=O)oc2c1 | 51% | · | · | · | · | ·
Nc1c(C(=O)NC2CCCC2)c2nc3ccccc3nc2n1CC1CCCO1 (configuration not stated) | 42%[activator] | i | i | i | -16% | 0%
CC12CC1(C)C(=O)N(c1cc(Cl)cc(Cl)c1)C2=O (configuration not stated) | -14% | · | · | · | -6% | ·
COCCNC(=O)c1c(NC(=O)c2ccco2)n(Cc2ccccc2)c2nc3ccccc3nc12 | 14% | 1.1e-08M* | i | i | 18% | 0%
O=C(O)CC[N+](=O)[O-] | -2%&-8% | ? | i | i | 15% | 2%
CCCCn1c(NC(=O)c2ccco2)c(C(=O)OCC)c2nc3ccccc3nc21 | -4% | ? | i | ? | 155% | 2%
CC1=C2[C@@H]3OC(=O)[C@@H](C)[C@@H]3CC[C@]2(C)C=CC1=O | 1%[25.7 µM] | ? | i | i | 5%[25.6 µM] | 0%[25.5 µM]

Random excerpt: 5 entries already listed, in no set order.
SMILES | ERK AVP inh | Fluorescein fluor | Rhodamine fluor | TexasRed autofl | Tau fil binding | FLuc inh
CC(C)OCCCNC(=O)c1c(N)n(Cc2cccs2)c2nc3ccccc3nc12 | -4% | ? | i | ? | 181% | 2%
CC12CC1(C)C(=O)N(c1cc(Cl)cc(Cl)c1)C2=O (configuration not stated) | -14% | · | · | · | -6% | ·
O=[N+]([O-])c1cc(Cl)c(Cl)cc1Cl | 0% | · | · | · | 6% | ·
Nc1c(C(=O)OC2CCCCC2)c2nc3ccccc3nc2n1CC1CCCO1 (configuration not stated) | 23% | ? | i | i | -9% | -17%
CC1=C2[C@@H]3OC(=O)[C@@H](C)[C@@H]3CC[C@]2(C)C=CC1=O | 1%[25.7 µM] | ? | i | i | 5%[25.6 µM] | 0%[25.5 µM]

A second format for some results above.
CC(C)OCCCNC(=O)c1c(N)n(Cc2cccs2)c2nc3ccccc3nc12
  ERK AVP inh: -4%; Fluorescein fluor: ?; Rhodamine fluor: i; TexasRed autofl: ?; Tau fil binding: 181%; FLuc inh: 2%

C[C@H](CCC(=O)O)[C@H]1CC[C@@H]2[C@H]3CC[C@H]4C[C@@H](O)CC[C@@]4(C)[C@H]3CC[C@]21C
  ERK AVP inh: 9%[25.7 µM]; Fluorescein fluor: ?; Rhodamine fluor: i; TexasRed autofl: i; Tau fil binding: -8%[25.6 µM]; FLuc inh: 11%[25.5 µM]

This is a subset; rates above refer to the full screens.
